Mtb betalactam: beta-lactam sensitization of Mtb H37Rv; 330,000 tested, 0.27% active; inhibition, % at 25 µM; M. tuberculosis H37Rv growth with meropenem, percent inhibition; hits of this screen are not shown here; AID 434955;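 active = about 74% or more and at least 40 points above the plate without the antibiotic, then above 30% in a dose series; inconclusive = first-round hits that could not be retested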;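 note: growth measured after seven days incubation then overnight dye step; 0% = bacteria only wells and 100% = bacteria with antibiotic; twin plates without the antibiotic show which effects depend on it; some results filed as inactive read as strong as hits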
Arbovirus anti: antivirals against arbovirus infection; arbovirus infection cell-based antiviral screen; inhibition, % at 10 µM; 200,000 tested, 0.37% active; AID 1251;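 active = inhibition from about 30%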;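 note: bluetongue infection of BSR cells; cell survival read as ATP light after 72 h; 0% = infected wells without compound and 100% = uninfected wells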
Mtb growth: M. tuberculosis H37Rv growth inhibitors, H37Rv strain (AID 1626). M. tuberculosis H37Rv growth inhibition; higher % means a stronger effect. one-dose inhibition, % at 10 µM; IC50 in µM for titrated hits. 220,000 tested, 0.95% active;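 active = confirmed in a dose series; inconclusive = inhibition above 80% but not taken into the dose series; inactive = below 80% or under 30% at every dose of the series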;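 note: bacteria incubated seven days before Alamar blue readout; 0% = bacteria only wells and 100% = bacteria with antibiotic wells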
RecA intein inh: Mtb RecA intein splicing inhibition; inhibition, %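 (about 9 µM by stock and volumes)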; cell-free RecA intein splicing, fluorescence; 290,000 tested, 0.75% active; in the data active = inhibition above about 30%; inconclusive = no clear call, values can overlap the other calls;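 note: 0% = vehicle wells and 100% = reference inhibitor control wells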
Target sequence (P9WHJ3 whole entry, looked up): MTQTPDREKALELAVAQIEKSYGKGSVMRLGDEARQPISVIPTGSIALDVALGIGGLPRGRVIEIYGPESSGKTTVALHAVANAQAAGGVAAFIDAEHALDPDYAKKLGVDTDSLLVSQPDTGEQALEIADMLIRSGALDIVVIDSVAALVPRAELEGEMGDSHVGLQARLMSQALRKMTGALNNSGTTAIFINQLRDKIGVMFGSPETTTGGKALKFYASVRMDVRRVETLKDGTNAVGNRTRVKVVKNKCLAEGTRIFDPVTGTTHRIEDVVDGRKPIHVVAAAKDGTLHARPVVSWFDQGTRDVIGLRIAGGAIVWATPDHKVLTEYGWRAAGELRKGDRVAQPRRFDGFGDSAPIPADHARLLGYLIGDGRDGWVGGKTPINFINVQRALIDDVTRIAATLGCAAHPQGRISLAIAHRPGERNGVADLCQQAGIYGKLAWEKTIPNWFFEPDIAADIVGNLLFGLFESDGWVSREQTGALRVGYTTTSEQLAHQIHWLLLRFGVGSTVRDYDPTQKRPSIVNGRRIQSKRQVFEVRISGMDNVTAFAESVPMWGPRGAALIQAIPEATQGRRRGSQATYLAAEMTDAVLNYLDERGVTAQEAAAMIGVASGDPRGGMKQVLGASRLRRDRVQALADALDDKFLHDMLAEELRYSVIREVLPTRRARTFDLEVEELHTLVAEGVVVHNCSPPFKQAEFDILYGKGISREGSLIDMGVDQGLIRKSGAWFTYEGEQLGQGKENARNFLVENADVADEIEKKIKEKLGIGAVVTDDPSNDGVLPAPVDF
YopH inh: blocks Yersinia enterocolitica YopH tyrosine phosphatase; fluorescence Ex485/Em525; inhibition, %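 (about 10 µM by stock and volumes)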; 140,000 tested, 0.16% active; AID 898;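 active = inhibition of 50% or more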;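 note: controls were vehicle for no effect and minimum signal wells for full effect; inactives centre near -20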
Arbovirus anti repeat: further read-out of Arbovirus anti, marked with its call; inhibition, %; measured here: 10K subset replicate screen; many hits read low in the repeat;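 first of two repeat runs on a subset; 0% = infected and 100% = uninfected wells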
An asterisk follows results filed as active; ? = inconclusive; / = no result given. Only part of the results is shown, so the mix of outcomes need not match the whole.

SMILES | Mtb betalactam | Arbovirus anti | Mtb growth | RecA intein inh | YopH inh | others
O=C(CSc1ncnc2c1oc1ccccc12)NC1CCCC1 | 0 | / | / | -0.6 | /
CCOc1ccc(-c2cccc(NC(=O)c3ccco3)c2)nn1 | -2 | / | / | -0.5 | /
Cn1c(C(=O)N2CCC(C(N)=O)CC2)cc2c(=O)n(C)c3ccccc3c21 | -7 | -3 | -6% | -1.8 | -33 | Arbovirus anti repeat=6
CCc1c(C(=O)N/N=C/c2ccc(OCc3ccc(F)cc3)c(OC)c2)nnn1-c1nonc1N | -2 | / | / | -2.1 | /
CCOCCCNS(=O)(=O)c1ccc(NC(=O)c2ccccc2)cc1 | 0 | 3 | 2% | -1.2 | -16
CCOP(=O)(c1c(F)c(F)c(F)c(F)c1F)C(O)c1ccccc1 (centres undefined) | -9 | 5 | 7% | 6.0 | -1
Cc1cccnc1NC(=O)c1ccc(NS(=O)(=O)c2ccc3[nH]c(=O)[nH]c3c2)cc1 | -5 | / | / | -0.8 | /
Oc1ccc(/C=N/n2c(-c3ccco3)csc2=Nc2cccnc2)c(O)c1 | 3 | -17 | -2% | 4.9 | -18
O=c1c(C=Nc2cccc(C(F)(F)F)c2)c[nH]n1-c1cccc(Cl)n1 | 99 | 7 | -11% | / | -26
COC(=O)c1ccc(/C=N/NC(=O)CCSc2nc3ccccc3s2)cc1 | 4 | 5 | 8% | -7.2 | -25
COc1ccc(CSCCc2n[nH]c(=S)n2-c2ccccc2)cc1 | -10 | 0 | -4% | 0.2 | /
c1ccc(-c2[nH]c[n+](CC3CO3)c2-c2ccccc2)cc1 (centres undefined) | 3 | 1 | -2% | / | -32
COc1ccc(OC)c(NC(=O)CSc2ccc3nnc(-c4cccnc4)n3n2)c1 | -3 | 6 | -8% | 0.6 | /
COc1ccc(N2CCN(C(=O)c3ccc4c(c3)OCO4)CC2)cc1 | -6 | -1 | / | 0.3 | -1 | Arbovirus anti repeat=4
CC(=O)OCC1=C(C(=O)O)N2C(=O)C(NC(=O)Cn3nc(C(F)F)c(Cl)c3C)C2SC1 (centres undefined) | 34 | -1 | -5% | -1.2 | /

Six compounds already listed, sorted by molecular weight, ascending.
SMILES | Mtb betalactam | Arbovirus anti | Mtb growth | RecA intein inh | YopH inh | others
c1ccc(-c2[nH]c[n+](CC3CO3)c2-c2ccccc2)cc1 (centres undefined) | 3 | 1 | -2% | / | -32
CCOc1ccc(-c2cccc(NC(=O)c3ccco3)c2)nn1 | -2 | / | / | -0.5 | /
Oc1ccc(/C=N/n2c(-c3ccco3)csc2=Nc2cccnc2)c(O)c1 | 3 | -17 | -2% | 4.9 | -18
Cc1cccnc1NC(=O)c1ccc(NS(=O)(=O)c2ccc3[nH]c(=O)[nH]c3c2)cc1 | -5 | / | / | -0.8 | /
CC(=O)OCC1=C(C(=O)O)N2C(=O)C(NC(=O)Cn3nc(C(F)F)c(Cl)c3C)C2SC1 (centres undefined) | 34 | -1 | -5% | -1.2 | /
CCc1c(C(=O)N/N=C/c2ccc(OCc3ccc(F)cc3)c(OC)c2)nnn1-c1nonc1N | -2 | / | / | -2.1 | /

The list goes on.
SMILES | Mtb betalactam | Arbovirus anti | Mtb growth | RecA intein inh | YopH inh | others
O=C(CCNC(=O)c1ccc(Br)cc1)Nc1cccc(S(=O)(=O)N2CCCC2)c1 | -2 | / | / | 4.3 | /
O=C(Nc1nccs1)C1(c2ccc(Cl)cc2)CC1 | 2 | 1 | -6% | / | /
CN(/C(=N\S(=O)(=O)c1ccccc1)C(F)(F)F)c1ccccc1 | -11 | -2 | 3% | 1.5 | -40
Cc1c(Cl)c([N+](=O)[O-])nn1CC(=O)NCc1cccnc1 | -7 | -2 | -4% | 3.0 | /
CCOc1ccc(OCc2cccc(C(=O)N3CCCC3)c2)cc1 | 1 | 2 | -6% | 0.3 | 5
O=C(NCCN1CCOCC1)C(=O)NCC1OCCN1S(=O)(=O)c1ccccc1 (centres undefined) | 1 | / | / | 0.0 | /
CCNC(=O)CCSc1nnc(-c2ccncc2)o1 | -8 | 0 | 1% | -1.1 | /
CC(=O)Nc1ccc(S(=O)(=O)N2CCN(Cc3cccc([N+](=O)[O-])c3)CC2)cc1 | -2 | -10 | 7% | 2.7 | /
CCCNC(=S)Nc1ccccc1 | -2 | / | -5% | -0.5 | /
O=C(c1ccccc1)c1cc(-c2ccccn2)c(N2CCOCC2)s1 | 5 | -6 | 6% | -5.0 | -37
COc1ccc(OC)c(NC(=O)CSc2nc(-c3ccccc3)cc(=O)[nH]2)c1 | 1 | / | / | -0.8 | /
CC1CCCCN1C(=O)CSc1nnc(-c2c[nH]c3ccccc23)o1 (centres undefined) | 6 | 3 | 5% | -2.9 | -17
O=C1C=C(N(CCO)Cc2ccccc2)c2ccccc2C1=O | / | -38 | -1% | 88* | /
Cc1ccc(S(=O)(=O)NNC(=O)/C=C/c2cccc(F)c2)cc1 | 4 | / | / | 0.1 | /
CCC1COCCS(=O)(=O)N1Cc1ccccc1F (centres undefined) | -7 | / | / | 1.0 | /

The list goes on; it opens with the six that closed the last part.
SMILES | Mtb betalactam | Arbovirus anti | Mtb growth | RecA intein inh | YopH inh | others
O=C(c1ccccc1)c1cc(-c2ccccn2)c(N2CCOCC2)s1 | 5 | -6 | 6% | -5.0 | -37
COc1ccc(OC)c(NC(=O)CSc2nc(-c3ccccc3)cc(=O)[nH]2)c1 | 1 | / | / | -0.8 | /
CC1CCCCN1C(=O)CSc1nnc(-c2c[nH]c3ccccc23)o1 (centres undefined) | 6 | 3 | 5% | -2.9 | -17
O=C1C=C(N(CCO)Cc2ccccc2)c2ccccc2C1=O | / | -38 | -1% | 88* | /
Cc1ccc(S(=O)(=O)NNC(=O)/C=C/c2cccc(F)c2)cc1 | 4 | / | / | 0.1 | /
CCC1COCCS(=O)(=O)N1Cc1ccccc1F (centres undefined) | -7 | / | / | 1.0 | /
O=C(NCc1ccco1)C1CCN(S(=O)(=O)N2CCOCC2)CC1 | -8 | 0 | 1% | 0.0 | 2
Cc1nc(-c2cccc(NC(=O)c3cccs3)c2)cs1 | -2 | -14 | -1% | 3.9 | -24
O=c1c2c(-c3cccs3)csc2ncn1-n1cccc1 | -5 | -3 | 3% | -0.3 | -37
Cc1ccc(Cn2c(SCC(=O)Nc3cc(C)on3)nc3ccccc3c2=O)cc1 | 2 | 3 | 9% | 2.8 | -42
CCN(CC)C(=O)C1CCN(S(=O)(=O)c2ccc(-n3cnnn3)cc2)CC1 | 7 | -2 | -4% | -0.1 | /
CCCCNS(=O)(=O)c1ccc2nc(-c3cccnc3)cc(C(=O)NCCOC)c2c1 | -2 | / | / | 0.0 | /
Cc1cn2c(-c3cccnc3)nnc2s1 | -13 | -3 | -13% | 1.8 | 2
CSc1nsc(SC)c1CO | 3 | / | -14% | -2.0 | /
Cc1ccc(-n2nc(C(=O)c3ccccc3)n3c(=O)cc(-c4ccccc4)nc23)cc1 | 1 | -8 | -6% | -1.3 | -11
CCCNC(=O)c1ccc(N2CCC3(CC2)CC(c2ccccc2)=NO3)c([N+](=O)[O-])c1 | 57 | / | / | 1.7 | /
CCOc1ccc2nc(NC(=O)CSc3ccccc3)sc2c1 | 61 | 1 | 76% | 3.0 | -4
CC/C(C)=N/NS(=O)(=O)c1ccc(C)c([N+](=O)[O-])c1 | -2 | / | -7% | 1.5 | /
Cc1ccc(C)c(CN2C(=O)NC3(CCCCCC3)C2=O)c1 | 2 | / | / | -1.4 | /
CC1CCN(c2nc3ccccn3c(=O)c2C=O)CC1 | -3 | 3 | -7% | -0.4 | /
CCOc1ccccc1N1CCN(C(=O)Nc2ccc(Cl)c(Cl)c2)CC1 | 1 | 3 | / | -0.3 | -15
Cc1cc(Cl)ccc1NC(=S)NCCC(c1ccccc1)c1ccccc1 | 10 | -21 | -5% | 2.4 | -44
Cc1c(C)c2ccc(OCC(=O)N3CCC(C(=O)O)CC3)cc2oc1=O | -3 | / | / | 0.7 | /
CCOC(=O)C1CCCN(c2c(N3CCc4ccccc4C3)c(=O)c2=O)C1 (centres undefined) | / | 3 | / | / | -40
Cc1ccc(-c2nn(-c3ccccc3)cc2C(=O)Nc2cccc(S(=O)(=O)N3CCOCC3)c2)cc1 | 7 | -7 | 5% | 3.3 | -29
O=C(NC1CCCc2ccccc21)C1CCCC1 (centres undefined) | -6 | / | / | -5.3 | /
COc1ccc(OC)c(C(=O)CSc2nnc(-c3cccnc3)n2C)c1 | 54 | -1 | 4% | -1.1 | 3
CCO[C@H]1OC(C(=O)O)=C[C@@H](c2cn(C(C)=O)c3ccccc23)[C@@H]1CCCO | -5 | / | -5% | -1.4 | /
CNC(=O)c1ccc2nc(NC(C)=O)sc2c1 | -2 | -5 | -10% | -2.1 | -10
CCOCCCN(C(=O)c1snc(C(N)=O)c1N)C(C(=O)NC1CCCC1)c1ccc(O)c(OC)c1 (centres undefined) | 2 | / | / | -3.5 | /
CC(C)(CNS(=O)(=O)c1ccc(Cl)cc1)N1CCCCC1 | 0 | -11 | -5% | -0.6 | -37
COCCNC(=O)CN(C(=O)Cn1nnc2ccccc21)c1cc(C)cc(C)c1 | 18 | 4 | 2% | -3.6 | /
CCNC(=O)CC1SC(=Nc2cccc3ccccc23)N(C)C1=O (centres undefined) | 1 | -3 | -3% | / | -18
CC(=O)Nc1ccc(-c2csc(NC(=O)CN3C(=O)NC4(CCCC4)C3=O)n2)cc1 | 0 | / | / | -1.1 | /
COc1cc(NC(=O)C2CCCN2C(=O)OCc2ccccc2)cc(OC)c1 (centres undefined) | -2 | -10 | 2% | / | -17
Brc1ccc(CSc2ccc3nnc(-c4cccnc4)n3n2)cc1 | 75 | -12 | 4% | -3.4 | /
O=C(NCCc1ccc(F)cc1)N1CCOCC1 | -5 | -1 | -2% | -4.8 | -86
O=C(COc1ccccc1)Nc1nnc(-c2ccccc2Cl)o1 | ? | / | / | -1.0 | /
Cc1ccc(C)c(-n2c(-c3ccncc3)n[nH]c2=S)c1 | -6 | / | -1% | -3.3 | /
CC(=O)c1nnn(-c2cccc(C#N)c2)c1C | -9 | / | 4% | 1.2 | /
COc1ccccc1CN(C)CC(=O)Nc1ccc(Cl)cc1F | 2 | 14 | 4% | 9.6 | /
Cc1ccc(OCC(=O)NS(=O)(=O)c2ccccc2)cc1 | -2 | 1 | -5% | 1.1 | /
COC(=O)COc1cccc(NC(=O)c2ccc(Cl)cc2)c1 | 100 | -6 | ? | 3.8 | /
O=C(COC(=O)C1CCN(c2ccc(C(F)(F)F)cn2)CC1)NCCc1ccccc1 | 12 | / | / | 4.7 | /
C/C(CCCO)=N/Nc1ccc([N+](=O)[O-])cc1[N+](=O)[O-] | 44 | 4 | 35% | / | /
CCc1ccc(N=c2c([N+](=O)[O-])nn(-c3ccccc3)n2O)cc1 | 67 | -4 | 14% | 6.6 | -22
COc1ccc(OC)c(Nc2cc(C(=O)NCCCN3CCOCC3)c3ccccc3n2)c1 | -5 | 2 | / | 2.0 | 7
CCC(C)NCCOCCOc1ccc(C)cc1OC (centres undefined) | 7 | 0 | -5% | 1.1 | 7
O=C(Nc1nnc(-c2ccccc2F)s1)C1CCN(S(=O)(=O)c2ccc(Cl)cc2)CC1 | -1 | -3 | 8% | -2.7 | 15
O/N=C/c1cc(Br)cc(Br)c1OCc1ccccc1 | 1 | -8 | -14% | 11 | -16
O=C1C2CCCCC2C(=O)N1Cc1ccccc1 (centres undefined) | -2 | -1 | -4% | -1.1 | /
O=C(COc1ccc(/C=N/NC(=O)c2ccncc2)cc1)Nc1cccc([N+](=O)[O-])c1 | 98 | / | / | 3.5 | /
O=C(OCc1nc2ccc(Cl)cc2n1CCO)c1ccc2c(c1)OCO2 | 3 | -6 | -3% | / | -22
CC(C)c1[nH]c(=O)c(C#N)c2c1CSC(C)(C)C2 | -10 | 1 | -3% | / | -28
Cc1ccc(S(=O)(=O)NCc2cccnc2)cc1 | 0 | / | / | 0.1 | /
COc1ccc(C(C(=O)NC2CCCCC2)N(C(=O)c2ccco2)c2ccc(-n3cnnn3)c(C)c2)cc1 (centres undefined) | -11 | / | -1% | -1.6 | -22
CCOc1ccccc1NC(=O)Cn1nnc(C(=O)Nc2ccc(C)cc2)c1N | 0 | -6 | / | -0.6 | -37
CCCN1CCN(CCCNC(=O)Cn2nc(C)n3c(cc4cc(F)ccc43)c2=O)CC1 | 0 | / | / | 0.9 | /
CC1(C)Cc2c(cnn2-c2ccccc2)C(NC(=O)CCN2CCCC2=O)C1 (centres undefined) | 6 | / | / | 1.7 | /
COc1ccc2c(c1OC)C(=O)N1C2SC(C)(C)[C@H]1C(=O)NCC(C)C (some centres undefined) | -2 | / | / | 2.3 | /
CCCCC(NC(=O)Cc1c(C)c2cc3c(-c4ccccc4)coc3c(C)c2oc1=O)C(=O)O (centres undefined) | -5 | / | / | 5.8 | /
